BasE inh: blocks the Acinetobacter baumannii siderophore enzyme BasE. inhibition, % (test concentration not listed). AID 485350. hit rate 0.1% among 84,000. purified BasE, fluorescence polarization binding displacement;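 active = both replicates above 25% with normal brightness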;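 note: 0% = negative plate control signal and 100% = positive plate control signal; stock transfer was 100 nL into about 30 µL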
KSHV LANA nucl: inhibitors of KSHV LANA binding to nucleosomes. hit rate 0.3% among 51,000. z-score (test concentration not listed). AID 720717. FITC-LANA1-23 / chicken nucleosome fluorescence polarization; hits give low values;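 active = both repeat wells score below -2 in polarization z-score versus plate sample wells, excluding overly bright wells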;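 note: 100 nL library stock added to about 30 µL; numbers are from one replicate; some results filed as inactive read as strong as hits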
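Assay system: purified chicken nucleosomes with FITC-labelled LANA N-terminal peptide (1-23) / Probe or stimulus: 50 nM FITC-LANA1-23 probe / Compound dosing: pin-transferred compound, 100 nL / Times: compound with peptide–nucleosome mix 10–45 min at room temperature / Technique: fluorescence polarization, 480 nm excitation, 535 nm parallel and perpendicular emission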
An asterisk follows results filed as active; x = not tested or not shown; & = joins results of further samples.

SMILES	KSHV LANA nucl	BasE inh
N/C(=N\S(=O)(=O)c1ccccc1)c1ccccc1	x	1.0
CN1CCN(S(=O)(=O)c2ccc(NC(=O)C(C)(C)C)cc2)CC1	2.64	-3.6
O=C(c1cc(-c2ccc3c(c2)OCO3)on1)N(C1CCCCC1)C1CCCCC1	-0.0925	0.4
Cc1cc(SC(C)C(=O)O)n2c(nc3ccccc32)c1C#N (stereo not given)	x	-1.4
CCS(=O)(=O)c1ccc(OC)c(NN=c2c(=O)c3ccccc3c2=O)c1	0.464	6.9
CC1(C)CC(N=Cc2ccco2)CC(C)(C)N1	x	2.5
CC(=O)OCC1=C(C(=O)O)N2C(=O)[C@@H](NC(=O)CSc3ccncc3)[C@H]2SC1	0.965&0.623&-0.163	1.0&-1.7
Cc1ccccc1NC(=O)NC1(C(=O)N2CCc3ccccc32)CCCCC1	-0.394	-1.4
CCCc1nnc2n1N=C(c1ccc(Br)cc1)CS2	x	-1.1
CS(=O)(=O)c1ccc2sc(N)nc2c1	-0.551	-0.8
Cc1ccc(OCC(=O)Nc2ccc(S(=O)(=O)N3CCOCC3)cc2)c(C)c1	0.525	0.1
COc1ccc(CCn2c(=S)[nH]c3cc(C(F)(F)F)ccc32)cc1OC	x	3.2
C#CCOc1ccc2c(c1)c(C(=O)OCC)c(C)n2-c1ccc(N(C)C)cc1	1.57	0.7
Cc1ccc(NC(=O)C2C3C=CC4(O3)C2C(=O)N(CCCN2CCOCC2)C4C(=O)NC2CCCC(C)C2C)cc1Cl (stereo not given)	-0.934	0.6
NC(=O)Cn1nc2sc3ccccc3n2c(=O)c1=O	-0.215	3.8

The list goes on:
SMILES	KSHV LANA nucl	BasE inh
COc1ccc(-c2c(C(=O)O)oc(=O)c3ccccc23)cc1	-0.74	5.8
CCOc1ncccc1C(=O)N1CCN(c2cccc(OC)c2)CC1	x	2.4
CC(C)CC(=O)Nc1ccc(N2CCN(C(=O)c3cccs3)CC2)cc1	x	1.1
CC(C)=NNC(=O)COc1ccccc1	x	0.6
COc1ccc(CC(=O)Nc2ccc(N3CCN(c4ccc(OC)cc4)CC3)c(C#N)c2)cc1	-0.188	-2.5
CCOC(=O)c1cccnc1SCC(=O)N(C)c1ccccc1	-0.462	-0.7
C=CCNC(=O)CN1C(=O)c2ccccc2S1(=O)=O	-1.21	1.7
CC(C)Oc1ccc(C(=O)N(CN2CCCC2=O)c2ccc(F)cc2)cc1	-0.413	-1.1
O=c1oc2cc3occ(-c4ccccc4)c3cc2c2ccccc12	x	1.3
O=C1CCCC1C1Sc2ccccc2NC1=O (stereo not given)	x	-1.0
CCCSc1oc(-c2ccccc2)nc1S(=O)(=O)c1ccccc1	-0.327	-0.8
CC(NC(=O)C(C)(C)C)C(c1cccs1)N1CCOCC1 (stereo not given)	-1.44	-0.1
CC1CCN(CN2C(=O)c3ccccc3C2=O)CC1	0.0415	3.7
COc1ccccc1NC(=S)NC(=O)C(C)C	0.435	-0.1
O=c1[nH]c(C2CCN(S(=O)(=O)Cc3ccccc3)CC2)nc2c1nnn2Cc1cccc(Cl)c1	0.153	-1.1

Additional entries follow.
SMILES	KSHV LANA nucl	BasE inh
CC(C)(C)c1oc(C(=O)O)cc1COCC(F)(F)F	-1	1.4
CN1/C(=C\C(=O)CSCCO)C(C)(C)c2ccccc21	x	-17.3
Oc1ccc2cc(Br)ccc2c1	0.682	-0.8
COCCOc1nc2ccccc2nc1C	-0.407	0.1
CCS(=O)(=O)N1CCc2cc(C(=O)Cn3ncc(Cl)c(Cl)c3=O)ccc21	x	0.7
O=C(OCc1cc2c(cc1Br)OCO2)c1cnccn1	x	0.9
NC(=O)Cn1cnc2c(cnn2-c2ccc(Cl)cc2)c1=O	0.161	4.4
O=C(c1ccccc1)C(Sc1nnc(-c2ccc3c(c2)OCO3)o1)c1ccccc1 (stereo not given)	x	2.8
c1ccc(-c2nonc2-c2ccccc2)cc1	-0.739	2.1
Cc1cc(NC(=O)CSc2nnc(Cc3cccn3C)n2C)no1	2.24	-0.1
Cc1cc(C)n(-c2ccc(C(=O)Oc3ccc4c(c3)OCO4)cc2)n1	x	2.7
CCN1CCCC1CNc1ncnc2sc3c(c12)CCC3 (stereo not given)	x	4.6
Cc1ccc(S(=O)(=O)NC(=NC2CCCCC2)c2ccccc2)cc1	x	0.7
N#Cc1ccccc1NC(=O)CN1C(=O)c2ccccc2C1=O	x	-0.3
Cc1nn(-c2ccccc2)c(Oc2ccc(F)cc2)c1/C=N/n1cnnc1	x	-0.8

Following part.
SMILES	KSHV LANA nucl	BasE inh
O=C(OCc1nnc(-c2ccccc2)o1)[C@@H]1CCCN1S(=O)(=O)c1ccc(Cl)cc1	x	-2.0
CCn1c2c(c3cc(OCC(C)C)ccc31)CCCC2=O	-0.482	0.4
Cc1ccccc1N=C1SCCCN1C(=O)c1ccc2c(c1)OCO2	x	-1.9
Cc1cc(N2CCC(NS(=O)(=O)c3ccc(Cl)cc3)CC2)nc(C)n1	1.23	-2.0
c1ccc2c(OCc3nn[nH]n3)cccc2c1	-0.695	1.3
O=C(Nc1ccc(N2CCN(Cc3ccccc3Cl)CC2)cc1)c1ccco1	-0.979	4.0
CCN(CC)C(=O)/C=C/c1cccc2ccccc12	-0.403	-0.6
O=C(NCC12CC3CC(CC(C3)C1)C2)N1CCN(CCO)CC1	x	-0.7
CN(c1ccc(O)cc1)c1nc(O)c(C2=c3ccccc3=NC2=O)s1	0.0025	2.8
CCN(CC)P1(=O)OC(c2cc(OC)c(OC)c(OC)c2)=Nc2c1c(C)nn2-c1ccccc1 (stereo not given)	x	-0.2
C=Cc1ccc(C=C)cc1	-0.306	1.6
O=c1c2ccccc2nnn1CN1CCCC1c1ccc2c(c1)OCCCO2 (stereo not given)	x	3.1
CC1CC2(C)CC(C)C1(COC(=O)Nc1ccccc1)CO2 (stereo not given)	0.6	-0.6
COC(=O)C12CC3CC(CC(C(=O)OC)(C1)C3=O)C2=O	-0.432	0.7
CC1CCCC(C)N1Cn1nc2sc3ccccc3n2c1=S (stereo not given)	x	1.7

New compounds follow:
SMILES	KSHV LANA nucl	BasE inh
O=C(O)c1sc2ccccc2c1Nc1ccccc1	x	3.7
CS(=O)(=NS(=O)(=O)c1ccccc1)c1ccccc1 (stereo not given)	-0.596	2.5
COc1ccc(C(=O)OCC(=O)N2CCCC2=O)c(OC)c1	x	0.2
Cc1sc2ncnc(OCC(=O)N3CCN(S(=O)(=O)c4ccc(Cl)cc4)CC3)c2c1C	x	0.3
O=C1O/C(=C\N2CCN(c3ccccc3)CC2)c2ccccc21	-1.51	x
CCN1CCN(C(=O)C2C3CCC(C3=C(C)C)C2C(=O)O)CC1 (stereo not given)	-0.1	-0.8
Cc1cc(C(=O)CSc2nc3ccccc3c(=O)n2CC(C)C)c(C)n1-c1nccs1	x	0.9
CCS(=O)(=O)c1ccc(O)c(NC(=O)Nc2ccccc2OC)c1	x	0.8
CSc1ccc(OC(=O)Nc2ccc(Cl)cc2)cc1	-0.364	6.2
CCOC(=O)c1c(C)nc2c(C)cccn12	0.12	x
O=C(Cn1c(=O)n(-c2cccc(Cl)c2)c(=O)n1CC(=O)N1CCCCC1)N1CCCCC1	-0.223	1.4
O=C1CSc2ccccc2N1Cc1n[nH]c(=S)n1Cc1ccccc1	-0.336	1.3
CCOc1ccc(CC(=O)O)cc1OCC	0.955	1.1
Cc1cc2c(cc1C)C(Nc1ccccc1)=NC(C)(C)C2	x	-3.8
O=c1c(C=Nc2cc(Cl)ccc2O)c(O)n(C2CCCCC2)c(=O)n1C1CCCCC1	0.058	-2.9

Additional results
SMILES	KSHV LANA nucl	BasE inh
Ic1ccc(-c2ncc3ccccn23)cc1	x	1.8
Nc1ccc(OC(F)(F)C(F)F)c(N)c1	1.34	-3.6
CCOC(=O)/C(C#N)=C/c1cn(CCC#N)nc1-c1ccccc1	x	2.1
CC(Sc1nc(N)cc(N)n1)C(=O)Nc1cccc(Cl)c1 (stereo not given)	-0.344	1.4
O=C(NC1C/C(=N\O)c2sccc21)C(F)(F)F (stereo not given)	-0.587	x
Cc1c(C(=O)N(Cc2cccs2)C2CCCC2)sc2nc3n(c(=O)c12)CCCCC3	1.18	0.5
COc1cc2c(cc1OC)CN(C(=O)c1cc(=O)c3ccccc3o1)CC2	x	-0.1
O=c1c2ccccc2nc2n1CCCN2	1.18	-3.4
O=C1ON=C(c2ccccc2)/C1=C\c1ccc2c(c1)OCO2	x	1.5
COC(=O)c1ccc(COC(=O)c2ccc(-n3cnnn3)cc2)o1	x	-0.3
Cc1cccc(C)c1NC(=O)CBr	-1.75	x
O=C(CN1CCOCC1)Nc1nc(-c2ccc3c(c2)CCN3S(=O)(=O)c2ccccc2)cs1	-0.369	-5.2
CCOC(=O)N1CCN(C(=O)c2ccc3c(=O)[nH]c4c(C(=O)NC(C)C)sc(=S)n4c3c2)CC1	0.467	1.0
CCn1c(SCc2nc3cc(OC)c(OC)cc3c(=O)[nH]2)nc2ccccc21	x	1.4
CC(C)n1nccc1NC(=NC1CC1)c1ccccc1	x	2.2

Going on with the list.
SMILES	KSHV LANA nucl	BasE inh
CCN(CC)C(=O)CSc1nc(-c2ccco2)cc(C(F)(F)F)c1C#N	-0.586	-1.3
Cc1nc2ccc(NC(=O)NC(=O)c3ccccc3Cl)cc2o1	-0.407	0.6
O=C(Nc1ccc2c(c1)C(=O)NC2=O)C1=COCCO1	-1.27	0.6
CN1CN2C(=O)N3CN(C)CN4C(=O)N(C1)C2C34 (stereo not given)	0.435	4.0
C/C(=N\NC(=O)COc1cccc(Br)c1)c1ccco1	x	2.1
CC(C)(C)CC(C)(C)c1ccc(OCOCCOCCO)c(Cc2cc(C(C)(C)CC(C)(C)C)cc(Cc3cc(C(C)(C)CC(C)(C)C)ccc3OCOCCOCCO)c2OCOCCOCCO)c1	0.508	-1.0
O=C(NC(=O)N(Cc1ccccc1)C1CC2CCC1C2)c1c(Cl)cccc1Cl (stereo not given)	x	3.0
CCN1C(=O)c2cccc3c(S(=O)(=O)N4CCC(C)CC4)ccc1c23	x	-2.3
CCS(=O)(=O)N1CCNCC1	-1.22	1.0
CC(=O)Oc1ccc2c(=O)c(-c3ccccc3C)c(C)oc2c1C	x	0.6
Cc1ccccc1COc1ccc2oc(-c3ccco3)cc(=O)c2c1	2.01	-3.7
Cc1ccc(S(=O)(=O)NC(=O)NCC2CCN(C(=O)OC(C)(C)C)CC2)cc1	x	-0.6
CCCN1CC=C2C(C#N)=C(N)C(C#N)(C#N)C(c3ccc(F)cc3F)C2C1 (stereo not given)	-4.5*	31.2
CC(C)=NNC(=O)c1cccn1C	0.369	1.5
CCN(C(=O)C(C)Nc1ccc(OC)cc1OC)C1CCCCC1 (stereo not given)	x	-0.1

5 entries picked at random from those above:
SMILES	KSHV LANA nucl	BasE inh
CCN(C(=O)C(C)Nc1ccc(OC)cc1OC)C1CCCCC1 (stereo not given)	x	-0.1
Cc1nc2ccc(NC(=O)NC(=O)c3ccccc3Cl)cc2o1	-0.407	0.6
Cc1ccccc1COc1ccc2oc(-c3ccco3)cc(=O)c2c1	2.01	-3.7
CCCN1CC=C2C(C#N)=C(N)C(C#N)(C#N)C(c3ccc(F)cc3F)C2C1 (stereo not given)	-4.5*	31.2
CC(=O)Oc1ccc2c(=O)c(-c3ccccc3C)c(C)oc2c1C	x	0.6

4 compounds already listed, arranged by molar mass, high to low.
SMILES	KSHV LANA nucl	BasE inh
CCN1C(=O)c2cccc3c(S(=O)(=O)N4CCC(C)CC4)ccc1c23	x	-2.3
Cc1ccccc1COc1ccc2oc(-c3ccco3)cc(=O)c2c1	2.01	-3.7
CN1CN2C(=O)N3CN(C)CN4C(=O)N(C1)C2C34 (stereo not given)	0.435	4.0
CC(C)=NNC(=O)c1cccn1C	0.369	1.5

Additional entries follow.
SMILES	KSHV LANA nucl	BasE inh
O=C(OCn1nnc2ccccc2c1=O)C1CC(O)CN1S(=O)(=O)c1ccc(Cl)cc1 (stereo not given)	x	4.0
CCSc1nnc2c(n1)OC(c1cc(O)ccc1Br)Nc1ccccc1-2 (stereo not given)	0.422	4.2
C=CCn1cnc2c(c1=O)c1nc3ccccc3nc1n2-c1cccc(Br)c1	0.038	1.0
COC(=O)c1cn(C(C)C(=O)NCc2ccco2)c2ccccc12 (stereo not given)	0.0225	-0.9
CCc1ccc(NC(=S)NC(=O)c2cccs2)cc1	x	1.1
CC(Oc1cccc2ccccc12)C(=O)NN (stereo not given)	-0.581	2.8
CCCCn1nc(C(=O)Nc2ccccc2)c2ccccc2c1=O	x	-0.1
CC(Sc1nnc(-c2ccccc2Br)o1)C(=O)NC1(C#N)CCCCC1 (stereo not given)	x	0.3
c1ccc(Cn2nnnc2C(c2cccnc2)N2CCN(c3ccccc3)CC2)cc1 (stereo not given)	0.738	-1.4
O=C(N/N=C/C1=C(Sc2nc3ccccc3o2)CCCC1)C1COc2ccccc2O1 (stereo not given)	x	0.4
CC1CCCCC1NC(=O)COC(=O)c1cc(=O)c2ccccc2o1 (stereo not given)	x	1.9
O=C(O)CCC(=O)N1CC(=O)Nc2ccc(Br)cc2C1c1ccccc1 (stereo not given)	-1.23	1.0
Cc1cc(=O)n(CC(=O)N2CCN(Cc3ccc4c(c3)OCO4)CC2)c2c1c(C)nn2-c1ccccc1	-0.011	3.5
CN(C)S(=O)(=O)c1ccc(S(=O)(=O)N(CC(=O)Nc2ccccc2)C2CC2)cc1	-1.24	0.3

Not all compounds are listed, so the mix of outcomes need not match the whole.
